fixLJ activator – increases Burkholderia fixLJ two-component signaling; z-score (test concentration not listed); AID 1918990; hit rate 0.3% among 29,000; B. multivorans fixK-promoter GFP reporter, 18 h; stronger effect = higher value;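 active = replicate mean overnight rise in green fluorescent reporter signal, 3 or more SD over negative controls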;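 note: score is relative to vehicle wells of the plate; 300 nL library stock went into each well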
* = called active by the depositor; & = joins results of further samples. A portion of the library; rates above refer to the full screens.

nr | compound | fixLJ activator
1 | CC1=C(C(=O)Nc2cccnc2)C(c2ccccc2)n2nc(-c3ccc(O)cc3)nc2N1 (stereo not drawn) | -0.32
2 | COc1cc(-c2ccc(C)s2)cc2c1OCCN(Cc1ncc[nH]1)C2 | -0.48
3 | CCOc1ccccc1NC(=O)Cn1c(=O)n(Cc2ccccc2)c(=O)c2c(C)c(C)sc21 | -1.6
4 | CCn1c2ccccc2c2cc(CN3CCN(Cc4ccccc4F)CC3)ccc21 | -0.21
5 | NC1CCCN(S(=O)(=O)CCOc2ccc(F)cc2)C1 (stereo not drawn) | 0.45
6 | Cc1cc(C)n(-c2nc3ccccc3nc2Nc2ccc(N(C)C)cc2)n1 | 1.9
7 | COc1cccc(CNC(=O)Cn2ncc3c(=O)oc4ccccc4c32)c1 | -0.35
8 | COc1ccc(OC)c(NC(=O)CC(=O)Nc2ccc3nc4n(c(=O)c3c2)CCCCC4)c1 | -1.8
9 | O=C1CN(C(=O)COc2ccc(Cl)cc2)C(c2ccc(F)cc2)c2cc(Cl)ccc2N1 (stereo not drawn) | -0.52
10 | CCc1ccc(-c2nc(CN3CCC(C(=O)NCCc4ccc(Cl)cc4)CC3)c(C)o2)cc1 | -0.84
11 | O=C(Cc1cn2ccsc2n1)NCc1cc(N2CCOCC2)ncn1 | 0.79
12 | CCOC(=O)c1ccc(N2C(=O)c3n[nH]c(-c4cccs4)c3C2c2cccc(O)c2)cc1 (stereo not drawn) | 2.8
13 | O=C(C1CCCCC1)N1CC(=O)N2CCc3ccccc3C2C1 (stereo not drawn) | -0.86&-2.2
14 | O=C(c1ccco1)N1CCCC(NCc2cc(-c3ccccc3)no2)C1 (stereo not drawn) | -0.56
15 | O=c1c(-c2cc(-c3ccccc3)nc3c2COc2ccccc2-3)coc2ccc(Cl)cc12 | 0.59
16 | O=C(O)c1ccc(Cn2c(SCc3ccc(F)cc3)nc3ccncc32)cc1 | -0.32
17 | O=C1CC(c2c(F)cccc2Cl)c2c(ccc3ccccc23)N1 (stereo not drawn) | 0.75
18 | CCOc1ccc(C(C)NC(=O)Nc2ccnn2C(C)C)cc1F (stereo not drawn) | -1.3
19 | CC(=O)N1CCc2cc(Br)cc(S(=O)(=O)N3CCC(C)CC3)c21 | 0.87
20 | O=C(Nc1ccc(F)cc1)Nc1ccc2snnc2c1 | -6.8
21 | COc1ccc(CNC(=O)CCCn2nc(C)n3c(cc4sccc43)c2=O)cc1 | -0.94
22 | O=C(Nc1ccc2nc3n(c(=O)c2c1)CCCCC3)C(=O)Nc1ccccc1F | -4.7
23 | Cc1ccc2occ(CC(=O)N(Cc3ccc(C(C)C)cc3)C3CCS(=O)(=O)C3)c2c1 (stereo not drawn) | 0.2
24 | COCCN(Cc1ccccc1F)C(=O)CSc1nncn1C | -1.6
25 | CN(CC1(CO)CC1)C(=O)Nc1ccc(C=Cc2ccccn2)cc1 | -0.21
26 | CCC(C)NC(=O)Cn1c(=O)n(Cc2ccc(C(=O)NCCCOC)cc2)c(=O)c2ccccc21 (stereo not drawn) | -1.3
27 | Cc1cccc(N2CCN(CCCNC(=O)c3nnc(Cc4c(F)cccc4Cl)o3)CC2C)c1 (stereo not drawn) | -0.98
28 | CCOC(=O)c1ccc(NC(=O)C2=C(C)Nc3nc(CCCO)nn3C2c2ccc(OC)cc2)cc1 (stereo not drawn) | -1.7
29 | CC(=O)c1ccc(NC(=O)c2cc(-c3ccc4c(c3)OCO4)on2)cc1 | -1.2
30 | O=C(CCC(=O)NC1CCCC1)NCCCc1ccccn1 | 0.33
31 | COc1ccccc1CNC(=O)CCn1c(=O)c2ccccc2n(CC(=O)Nc2cc(Cl)ccc2C)c1=O | -2.2
32 | CCc1ccc(N(CC)C(=O)Cn2cnc3sc(C)c(S(=O)(=O)N4CCN(c5ncccn5)CC4)c3c2=O)cc1 | -0.65
33 | COCc1cc(CNC(=O)c2ccc(-c3sc(C)nc3C)cc2)[nH]n1 | 1.5
34 | CC(C)Cn1c(=O)c2ccccc2n2c(CCC(=O)Nc3ccc(F)cc3)nnc12 | -1.9
35 | C[C@H](N)[C@H](O)c1ccccc1 | 1.2&0.09
36 | Cc1ccc(O)c(NC(=O)CCSc2nc(-c3ccco3)cc(C(F)(F)F)n2)c1 | -2.2
37 | COc1ccc(C(=O)N2CCN(C(=O)COc3ccc(C)cc3)CC2)cc1OC | -1.4
38 | COc1ccc(CCNC(=O)CCc2c(C)nc3c(c(C)nn3-c3ccccc3)c2C)c(OC)c1 | -1.6
39 | Cc1cc(C)c2oc(C(=O)Nc3ccc(S(=O)(=O)N4CCC(C)CC4)cc3)cc(=O)c2c1 | -2.2
40 | CC(C)(Sc1cc(C(C)(C)C)c(O)c(C(C)(C)C)c1)Sc1cc(C(C)(C)C)c(O)c(C(C)(C)C)c1 | -2.5

Values in list order from the entries so far:
fixLJ activator for entries 14 to 25: -0.56, 0.59, -0.32, 0.75, -1.3, 0.87, -6.8, -0.94, -4.7, 0.2, -1.6, -0.21

More records follow.
nr | compound | fixLJ activator
41 | CC(C)C(=O)N1CCn2nc(CNC3CCSC3)cc2C1 (stereo not drawn) | -0.26
42 | Cc1cccc(-c2nc3c(cnn3-c3ccccc3)c(=O)n2-c2ccc(Cl)cc2)c1 | -0.62
43 | Cc1ccc(CNC(=O)CCc2nnc3n(C)c(=O)c4sccc4n23)cc1 | -1.3
44 | N#Cc1c(N)nc2c(c1-c1cc(F)cc(F)c1)CN(Cc1ccco1)CC2 | -2
45 | Cc1cccc(NC(=O)CSc2nc3ccccc3nc2N2CCOCC2)c1C | -1.4
46 | CCc1ccc(C(=O)c2cn(CC(=O)Nc3ccc(F)cc3)c3ccc(OC)cc3c2=O)cc1 | -0.7
47 | O=C(c1cc(-c2cnn(CCO)c2)nc2ccccc12)N1CCc2ccccc2C1 | -0.96
48 | COCC1CCCN1C(=O)c1cc2c(s1)C1(CCN(C(C)=O)CC1)OCC2 (stereo not drawn) | -1.3
49 | Cc1ccc(NC(=O)CN(C)S(=O)(=O)c2ccc3nc(C)sc3c2)c(C)c1 | -0.94
50 | CCc1ccc(C(=O)N2CC(O)C(Cc3cc(C)[nH]n3)C2)s1 (stereo not drawn) | -3
51 | CCSc1oc(-c2cccs2)nc1S(=O)(=O)c1ccc(Br)cc1 | -0.13
52 | O=C(CSc1nnc(-c2ccc(Cl)cc2)o1)N1CCc2ccccc21 | -0.64
53 | CCc1cccc(NC(=O)c2cc3c(=O)[nH]c4ccccc4c3n2C)c1 | -1.4
54 | O=C(NC1CCOCC1OCCO)c1ccc(N2CCCC2)cc1 (stereo not drawn) | -0.48
55 | CCOC(=O)c1ccc(N2C(=O)c3[nH]nc(-c4ccc(OC)cc4)c3C2c2ccc(C)cc2)cc1 (stereo not drawn) | -0.74
56 | Cc1ccc(CCNC(=O)CS(=O)Cc2nc(-c3ccccc3Cl)oc2C)cc1 (stereo not drawn) | -1.4
57 | COc1cccc2c1OCCCN(C(=O)NCC1CCCN(CCO)C1)C2 (stereo not drawn) | -2.3
58 | Cc1cc(C)n(CCC(=O)NC(c2ccc(Cl)cc2)c2cccnc2)n1 (stereo not drawn) | -0.65
59 | Cc1cc(C)c2c(CC(=O)Nc3ccc(S(=O)(=O)N4CCCCC4)cc3)coc2c1 | -0.19
60 | CC(NC(=O)CCc1cccn1C)c1cnn(-c2ccccc2)c1 (stereo not drawn) | -1.6
61 | CCCSc1nnc2n(-c3cccc(C)c3)c(=O)c3c4c(sc3n12)CCCC4 | -1.2
62 | CC(Oc1ccc(CN(C)Cc2cnn(C(C)C)c2)cc1Cl)C(=O)O (stereo not drawn) | -0.14
63 | Cn1nnc2c(C(N)=O)ncn2c1=O | -1.2
64 | COc1ccc(-c2nnc(SCC(=O)N3CCC(C)CC3)o2)cc1 | -0.03
65 | Cc1cccc(-c2nc(S(=O)(=O)c3ccccc3)c(N3CCN(c4ccccc4)CC3)o2)c1 | 2
66 | COc1cccc(NC(=O)CSc2nc3ccccc3nc2N2CCOCC2)c1 | -11
67 | Cc1c2cnn(-c3ccccc3)c(=O)c2c(C)n1CC(=O)NCc1ccccc1 | -2
68 | CC1(C(=O)NC2CCCCC2)Cc2ccccc2C(=O)N1Cc1ccc(F)cc1 (stereo not drawn) | -0.34
69 | CCOc1ccc(-n2c(-c3ccccc3)c(C)n3c4c(=O)n(C)c(=O)n(C)c4nc23)cc1 | -0.61
70 | CC(CN(C)C)CN1c2ccccc2Sc2ccccc21 (stereo not drawn) | -1.4
71 | COc1ccc(NC(=O)C2CCCN(S(=O)(=O)c3c(C)[nH]c(=O)[nH]c3=O)C2)c(OC)c1 (stereo not drawn) | 0.06
72 | Cc1cc(CC2CN(C(=O)c3cc4c(cc3C)OCCO4)CC2O)n[nH]1 (stereo not drawn) | -0.07

From entry 65 to 66, as listed above:
nr | compound | fixLJ activator
65 | Cc1cccc(-c2nc(S(=O)(=O)c3ccccc3)c(N3CCN(c4ccccc4)CC3)o2)c1 | 2
66 | COc1cccc(NC(=O)CSc2nc3ccccc3nc2N2CCOCC2)c1 | -11

Remaining list, next part
nr | compound | fixLJ activator
73 | Cc1ccc(OCC(=O)Nc2cc3nn(-c4ccccc4)nc3cc2C)cc1 | -0.3
74 | CNC(=O)c1c(NC(=O)Cc2coc3ccc(C)cc23)sc2c1CCCC2 | -0.49
75 | Cn1c(=O)c2c(nc(NCc3ccccc3)n2Cc2ccc(Cl)c(Cl)c2)n(C)c1=O | -1.6
76 | COc1ccccc1NC(=O)c1oc2ccccc2c1NC(=O)C(C)C | -0.03
77 | COCCNC(=O)CCC(=O)NNc1nc2ccccc2c2nc(-c3ccccc3)nn12 | -1.2
78 | Cc1cc(N2CCCCC2)nc2ccc(NC(=O)CCC(=O)N3CCN(c4cccc(Cl)c4)CC3)cc12 | 0.2
79 | COCCCN1CCC(O)[C@]2(CCCN(C(=O)C3CCCCCC3)C2)C1 (stereo partly drawn) | -1
80 | COC(=O)NC(C)C(=O)N(C)Cc1[nH]c2ccccc2c1C (stereo not drawn) | -1

Reprinted at random: 2 records from the list, in no set order.
nr | compound | fixLJ activator
75 | Cn1c(=O)c2c(nc(NCc3ccccc3)n2Cc2ccc(Cl)c(Cl)c2)n(C)c1=O | -1.6
76 | COc1ccccc1NC(=O)c1oc2ccccc2c1NC(=O)C(C)C | -0.03

(more compounds)
nr | compound | fixLJ activator
81 | COc1ccc(CCNC(=O)CCCn2c(=O)c3ccccc3n(Cc3cccc(Cl)c3)c2=O)cc1OC | -2.5
82 | COc1cccc(OCc2cc(C(=O)NC(C(N)=O)C(C)C)n[nH]2)c1 (stereo not drawn) | -1.1
83 | CCOc1ccc(NCc2cccn2-c2nnc(N3CCC(C(=O)NCc4cccc(OC)c4)CC3)s2)cc1 | 0.08
84 | COc1ccc(N(C)C(=O)C2CCN(S(=O)(=O)c3cc(Br)cc4c3N(C(C)=O)CC4)CC2)cc1 | -1.9
85 | CCCSc1oc(-c2cccs2)nc1S(=O)(=O)c1ccc(C)cc1 | -1.3
86 | CC(C)c1nccn1CCCNC(=O)c1ccc(NC2CCCC2O)nc1 (stereo not drawn) | -1.4
87 | Cc1cc(C)n(CC(C)NC(=O)c2c(-n3cccc3)sc(C)c2C)n1 (stereo not drawn) | -0.79
88 | CCOc1ccc(CCNC(=O)c2ccc3c(c2)N(Cc2ccccc2F)C(=O)c2ccccc2S3=O)cc1OCC (stereo not drawn) | 0.62
89 | CCCOc1ccc(C2c3c(-c4ccccc4O)n[nH]c3C(=O)N2Cc2cccnc2)cc1 (stereo not drawn) | -2
90 | Cc1ccc(-c2nnc(Nc3cccc(Cl)c3)c3ccccc23)cc1S(=O)(=O)N1CCCCC1 | -2.8
91 | COc1ccccc1N=C1SC(C(=O)Nc2ccccc2OC)CC(=O)N1C (stereo not drawn) | -2.5
92 | O=C(NCc1noc(-c2ccco2)n1)c1cnn(Cc2ccccc2)c1 | 0.48
93 | Cc1noc(C)c1CCCNC(=O)[C@]12COCC1CN(CCn1cnnc1)C2 (stereo partly drawn) | 0.73
94 | Cc1csc2nc(COc3cccc(NC(=O)c4ccccc4F)c3)cc(=O)n12 | 3*
95 | CCCn1nc(C)c(NC(=O)NC2CCN(c3cnccn3)CC2)c1C | -0.73
96 | Clc1ccccc1-c1nc(Nc2ccccc2)nc2ccc(Br)cc12 | 1.3
97 | CCNc1ncc(C(=O)N(Cc2ccccc2)Cc2nccs2)cn1 | 0.15
98 | CC1CCc2nn(CC(=O)Nc3ccccc3Cl)cc2C1 (stereo not drawn) | -2.5
99 | COCCN1CCN(c2cc(C3CC(N)C3)nc(N(C)C)n2)CC1 (stereo not drawn) | -0.56
100 | Cc1cc(Br)ccc1NC(=O)COc1cc(=O)n(C)c2ccccc12 | -1.4
101 | COc1cccc(CNC(=O)c2ccc(NC(=O)N3CC(C)Sc4ccccc43)cc2)c1 (stereo not drawn) | -1.7
102 | CCOc1ccc(CCNC(=O)CCc2c(C)nc3c(-c4ccccc4)c(C)nn3c2C)cc1OCC | 0.07
103 | Cc1cccc(C)c1NC(=O)CCS(=O)(=O)c1cccc2nonc12 | -0.24
104 | CCc1cccc(CC)c1NC(=O)Cn1nnc2sc(-c3ccccc3)cc2c1=O | -2

Looked up above.
cpd 102 @ fixLJ activator: 0.07
cpd 98 @ fixLJ activator: -2.5
cpd 104 @ fixLJ activator: -2
cpd 101 @ fixLJ activator: -1.7
cpd 99 @ fixLJ activator: -0.56

(list continues)
nr | compound | fixLJ activator
105 | Cc1ccc(NC(=O)CCc2nc3cccnc3n2-c2ccccc2)cc1Cl | -3.5
106 | Cc1cc(-c2nn(C)c(Cl)c2CN2CCC(C(C)N(C)C)CC2)no1 (stereo not drawn) | 1
107 | COc1cc(OC)c2nc(NCCOCCO)cc(C)c2c1 | -0.59
108 | CC(C)(C)c1ccc(C(=O)NC2(C(F)(F)F)NC(=O)N(CCc3ccccc3)C2=O)cc1 (stereo not drawn) | -3.6
109 | CCCc1nc(C(=O)NCCCc2nnc3ccccn23)cs1 | -1.8
110 | O=C(NCCc1ccccc1)c1nn(-c2ccccc2F)nc1CO | -1.7
111 | COc1ccc(CC(=O)N2CC(=O)Nc3ccc(F)cc3C2c2ccccc2)cc1 (stereo not drawn) | 0

Screens as filed in PubChem.
